PMP22 txn: PMP22 gene transcription modulation. S16 Pmp22-F2sN Schwann cells (luciferase reporters placed in the Pmp22 gene), FLuc/NLuc coincidence luminescence, 24 h. 2% of 43,000 active. Potency, µM (doses to about 57.5 µM), without a hit: top-dose activity change, negative = inhibition, hits mostly inhibitors. AID 1508649; active = clear falling dose curves in both reporters; inconclusive = both reporters move, but less clearly or upward; inactive = either reporter flat; the % is the NLuc reporter signal; note: % is set by controls: 0 for no effect and ±100 for the full control effect; some results filed as inactive show a strong effect at the top dose
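Luminescent read-out of sequential FLuc and NLuc signals from a reporter embedded in the Pmp22 3' UTR of S16 Schwann cells, taken after 24 h compound exposure at 37C; compounds reducing both signals score as inhibitors of expression.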
HTT prom inh: inhibitors of huntingtin promoter activity; HEK293 HTT promoter firefly luciferase reporter (activity 0% = vehicle and -100% = no light), 24 h; Potency, µM (series often up to 57.5 µM), without a hit: at the highest dose activity change, negative = inhibition, hits mostly inhibitors; 0.93% of 48,000 active; AID 1508623; active = well fitted inhibition curve with a large enough effect; inconclusive = small, poorly fitted or top-dose-only effect; inactive = no such curve, though single readings can be large or run the other way; note: nearly all actives have a fitted effect of over 50% in size
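Quantitative HTS used concentration series of up to 57.5 uM final on HEK293 luciferase reporter cells, 24 h at 37 degrees C. Readout was Dual-Glo firefly luminescence.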
Numbers without * were called inactive; ? = inconclusive; nt = not tested or not shown; & = joins results of further samples; [ ] = another dose, or the depositor's remark. Potency is the fitted concentration of half-maximal effect. A portion of the library. The share of hits here may be higher or lower than overall.

1	Cc1nn(C(C)(C)C)c(OC(=O)C(C)(C)C)c1Sc1ccccc1
2	Cc1c(C(=O)N2CCCCCC2)c(S(=O)(=O)NCc2ccc(Br)cc2)c(C)n1C
3	Cc1ccccc1C(=O)NCc1ccc2c(c1)CCN2C(=O)c1ccc(F)cc1
4	CCn1cc2nc(SCc3c(F)cccc3Cl)n(CCc3ccccc3)c(=O)c2n1
5	Cc1nnc2c(N3CCN(c4ccccc4F)CC3)nc3ccccc3n12
6	CN1CCC(=C2c3ccccc3C=Cc3ccccc32)CC1
compound no.,1,2,3,4,5,6
PMP22 txn,5%,15%,-14%,?,-13%,nt
HTT prom inh,-14%,-16%,-5%,?,-8%,27%&-10%

7	COc1ccc(-c2cn3cccnc3n2)cc1NC(=O)Cc1ccccc1
8	CCn1cc(C(=O)NCCc2ccc(OC)c(OC)c2)c(=O)c2cc(S(=O)(=O)N3CCCCCC3)ccc21
9	CCN(CC)C(=O)Cn1c(=O)n(Cc2ccc(C(=O)NCc3ccccc3Cl)cc2)c(=O)c2ccccc21
10	CC(C)c1cnc2c(c1SCC(=O)Nc1ccccc1C(F)(F)F)c(=O)n(C)c(=O)n2C
11	Oc1c(C(c2ccc(Cl)cc2Cl)N2CCN(c3ccccc3)CC2)sc2nc(-c3ccco3)nn12 (configuration not stated)
12	COc1ccc(-c2cc(NCc3ccc(F)cc3)n3cnnc3n2)cc1
compound no.,7,8,9,10,11,12
PMP22 txn,-6%,?,-6%,?,?,?
HTT prom inh,3%,-6%,-10%,-1%,-13%,-27%

13	CC1CCc2onc(C(=O)Nc3ccc(Cl)cc3)c2C1 (configuration not stated)
14	Clc1ccc2nc(Nc3ccccc3Cl)nc(-c3ccccc3)c2c1
15	Cc1nc2c(-c3ccccc3)c(C)nn2c(C)c1CCC(=O)NCc1cccc(Cl)c1
16	O=C(CN1CCCN(Cc2ccc(F)cc2)S1(=O)=O)Nc1ccc2c(c1)OCCO2
17	CCCCC(CC)Cn1c(Oc2ccccc2)nc2c1c(=O)n(C)c(=O)n2C (configuration not stated)
18	COc1ccc(-c2nsc(NC(=O)COc3ccccc3OC)n2)cc1
compound no.,13,14,15,16,17,18
PMP22 txn,-10%,-19%,?,11%,-14%,-8%
HTT prom inh,79%[activator],0%,-21%,2%,-16%,-6%

19	Cc1cccc(N2CCN(C(=O)CCS(=O)(=O)c3ccc4c(c3)oc(=O)n4C)CC2)c1C
20	Cc1cc(C)cc(NC(=O)C(C)N2Cc3ccccc3C2=O)c1 (configuration not stated)
21	Cc1cccc(N2CCN(C(=O)NCc3noc4ccccc34)CC2)c1C
22	COc1ccccc1-c1cc(C(F)(F)F)nc(S(=O)(=O)CCCC(=O)Nc2cc(Br)ccc2O)n1
23	COc1ccc(CNC(=O)CN(C)S(=O)(=O)c2ccc3[nH]c4c(c3c2)CCCC4)cc1
24	O=C(NC1CCCCC1)c1ccc(CSc2nc3cccnc3n2Cc2ccccc2F)cc1
compound no.,19,20,21,22,23,24
PMP22 txn,-15%,33%,-9%,?,?,?
HTT prom inh,?,-14%,-10%,31%[activator],-29%,?

Quoted from the listing.
Entry for Clc1ccc2nc(Nc3ccccc3Cl)nc(-c3ccccc3)c2c1 under PMP22 txn: -19%
Entry for CCN(CC)C(=O)Cn1c(=O)n(Cc2ccc(C(=O)NCc3ccccc3Cl)cc2)c(=O)c2ccccc21 under PMP22 txn: -6%

Next section.
25	O=C(COc1ccc(F)cc1)Nc1ccc(C(=O)OCc2cc(=O)n3nc(C4CC4)sc3n2)cc1
26	COc1ccc(C)cc1Nc1nc(N)c2cc(OC)c(OC)cc2n1
27	COc1ccc(-c2cc3nc(C4CCN(C(=O)OC(C)(C)C)CC4)c(C(=O)Nc4cc(Cl)cc(Cl)c4)cn3n2)cc1
28	CCOC(=O)CC(=O)CSc1nc2ccsc2c(=O)n1Cc1ccccc1
29	Cc1ccc(NS(=O)(=O)c2ccc3[nH]c4c(c3c2)CCCC4)cc1N(C)C
30	Cc1ccc2scc(N3CCN(c4ccccc4)CC3)c(=O)c2c1
compound no.,25,26,27,28,29,30
PMP22 txn,15%,?,-6%,?,17µM*,?
HTT prom inh,-4%,-26%,-5%,?,?,-6%

31	NC(=O)c1c(NC(=O)CS(=O)(=O)c2ccc(Cl)cc2)sc2c1CCCC2
32	Nc1ccc2oc(Cc3ccc(Cl)cc3)nc2c1
33	Cc1cccc(CCNC(=O)c2cc(S(=O)(=O)N3CCCCC3)c[nH]2)c1
34	CCn1cc(C(=O)NCc2ccccc2OC)c(=O)c2cc(S(=O)(=O)N3CCCCCC3)ccc21
35	COc1ccc(-c2c(C)c3ccc(O)c(CN4CCOCC4)c3oc2=O)cc1
36	CCc1cccc(CC)c1NC(=O)CN(C)S(=O)(=O)c1ccc2c(c1)n(C)c(=O)c(=O)n2C
compound no.,31,32,33,34,35,36
PMP22 txn,?,-2%,-10%,?,?,-7%
HTT prom inh,?,-10%,-14%,-19%,-17%,-19%

37	CCN(CC)CCCNC(=O)c1c(C)oc2ncnc(N3CCOCC3)c12
38	CCOc1ccc(CCNC(=O)CSc2cc(=O)n(C)c3ccc(Cl)cc23)cc1OCC
39	O=C(c1ccccc1)N1CCCC(c2nc3c(nnn3Cc3ccc(F)cc3F)c(=O)[nH]2)C1 (configuration not stated)
40	CC(C)(S)[C@@H](N)C(=O)O
41	CCc1nnc(SCc2c(F)cccc2Cl)c2cc3sccc3n12
42	COc1ccc(-c2nc3c(c(SCC(=O)Nc4cccc(O)c4)n2)Cc2c(CO)cnc(C)c2O3)cc1
compound no.,37,38,39,40,41,42
PMP22 txn,-18%,-17%,?,nt,1%,?
HTT prom inh,-2%,-10%,?,?,4%,-6%

43	CCC(=O)NC[C@H](Cc1ccc(OCCc2nc(-c3ccccc3)oc2C)cc1)NC(C)=CC(=O)c1ccc(C(F)(F)F)cc1
44	CC(=O)c1ccc(NC(=O)c2nc3nc(C)cc(C(F)F)n3n2)cc1
45	CCOCCCNC(=O)C(c1ccc(OC)cc1)N(Cc1cccs1)C(=O)CNC(C)=O (configuration not stated)
46	Cc1cccn2c(=O)c3cc(C(=O)Nc4ccc(Cl)c(Cl)c4)sc3nc12
47	CCOC(=O)c1cccc(NC(=O)c2cc(S(=O)(=O)N3CCCCCC3)cn2C)c1
48	Cc1ccc(-c2cc3ncc(C(=O)c4cc(Cl)c(C)cc4O)cn3n2)cc1
compound no.,43,44,45,46,47,48
PMP22 txn,nt,-5%,20%,7%,-20%,-10%
HTT prom inh,-1%,-13%,-14%,3%,?,1%

49	Cc1ccc(-c2nnc3ccccc3c2C(=O)Nc2cccc(C(F)(F)F)c2)cc1
50	CCCN(CCC)CCNC(=O)Cn1cnc2sc(C)c(S(=O)(=O)N3CCN(c4ccccc4OC)CC3)c2c1=O
51	Cc1ccc(/C=C/c2onc(C)c2S(=O)(=O)N2CCC(C(=O)Nc3ccc(Br)c(C)c3)CC2)cc1
52	Cn1c(=O)n(CC(=O)O)c(=O)c2c1nc1n2CCCN1c1ccc(Cl)cc1
53	CCn1ccc2cc(S(=O)(=O)N3CCCN(C(=O)Nc4cc(Cl)ccc4C)CC3)ccc21
54	COc1ccc(-n2ncc(C(=O)NCc3ccco3)c2C2CCN(C(=O)OC(C)(C)C)CC2)cc1
compound no.,49,50,51,52,53,54
PMP22 txn,-2%,-16%,-9%,-17%,?,-31%
HTT prom inh,27%,-15%,-8%,-2%,?,2%

55	CCn1c(C(=O)Nc2ccc(C)cc2C)cc2sc(Cl)cc21
56	Cc1cccc(NC(=O)CSc2nccn2-c2cccc(Cl)c2)c1C
57	Cc1ccc(C)c(C(=O)N2CCC(c3nc4c(nnn4Cc4ccccc4)c(=O)[nH]3)CC2)c1
58	Cc1ccc(N(C)C(=O)Cn2cc(S(=O)(=O)N3CCCC3)c(S(=O)(=O)N3CCCC3)c2)cc1
59	COCCNc1cc(N2CCN(C3CCCCC3)CC2)c2noc3c2c1C(=O)c1ccccc1-3
60	CCc1nn(CC(=O)N2CCCCC2)c(=O)c2cc3sccc3n12
compound no.,55,56,57,58,59,60
PMP22 txn,10%,-1%,?,-2%,?,-14%
HTT prom inh,?,-21%,-28%,-14%[11.5 µM],-1%,-13%

61	Cc1ccc(C)c(N2C(=O)N(Cc3ccccc3C)c3ccccc3S2(=O)=O)c1
62	CCOc1ccc(S(=O)(=O)N(C(=O)c2ccncc2)c2ccc3oc(C)c(C(=O)OC)c3c2)cc1
63	CCOC(=O)C1CCN(C(=O)CSc2c3c(nc4ccc(Cl)cc24)CCCC3)CC1
64	Cc1nc2nc(NC(=O)C(C)(C)C)[nH]n2c(=O)c1Cc1ccccc1
65	CCN(CC)c1ccc(-n2nc3cc(C)c(NC(=O)c4ccccc4F)cc3n2)cc1
66	O=C(c1ccc2c(c1)N(Cc1ccc(F)cc1)C(=O)c1ccccc1S2(=O)=O)N1CCCCC1
compound no.,61,62,63,64,65,66
PMP22 txn,7%,?,19µM*,53%,-20%,-3%
HTT prom inh,?,2µM*,-30%,4%,-3%,-9%

67	CCS(=O)(=O)c1oc(-c2ccc(F)cc2)nc1S(=O)(=O)c1ccccc1
68	O=C(CSc1nc(-c2ccccc2)[nH]c1-c1ccccc1)Nc1ccc2c(c1)OCCO2
69	COC(=O)c1ccc(Cl)cc1NC(=O)N1CCCn2nc(C)cc21
70	COc1ccc(-c2nnc(SCC(=O)N(C)Cc3ccccc3)o2)cc1OC
71	CCOc1ccc(NC(=O)Cn2c3ncccc3c(=O)n2-c2ccc(CC)cc2)cc1
72	CCOc1ccccc1CNC(=O)c1nn(C)c2c1CS(=O)(=O)c1ccccc1-2
compound no.,67,68,69,70,71,72
PMP22 txn,2.5µM*,-12%,37%,-20%,-2%,?
HTT prom inh,?,-29%,-3%,-1%,-9%,-23%

73	O=c1[nH]nc(OCCCc2ccc(Cl)cc2)c(NCc2cccnc2)c1Br
74	CC(C)c1ccc2occ(CC(=O)N(Cc3ccc(F)cc3)C3CCS(=O)(=O)C3)c2c1 (configuration not stated)
75	CC(C)(C)c1nc2c3cc[nH]c(=O)c3c3cc(F)ccc3c2[nH]1
76	O=C(CC1N=C2c3ccccc3N=C(SCc3cccc(F)c3)N2C1=O)NC1CCCCC1 (configuration not stated)
77	CCOc1ccc(NC(=O)c2ccc(F)c(S(=O)(=O)N(CC)Cc3ccccc3)c2)cc1
78	Cc1ccc(-c2nc(S(=O)(=O)c3ccc(C)cc3)c(SCC(=O)Nc3ccc(F)cc3)o2)cc1
compound no.,73,74,75,76,77,78
PMP22 txn,nt,?,nt,-17%,?,-21%
HTT prom inh,?,?,-3%,?,2µM*,-18%

Shown with values under each structure: entries from further up
Values run as follows: PMP22 txn	HTT prom inh
68) O=C(CSc1nc(-c2ccccc2)[nH]c1-c1ccccc1)Nc1ccc2c(c1)OCCO2
  -12%	-29%
69) COC(=O)c1ccc(Cl)cc1NC(=O)N1CCCn2nc(C)cc21
  37%	-3%
70) COc1ccc(-c2nnc(SCC(=O)N(C)Cc3ccccc3)o2)cc1OC
  -20%	-1%
71) CCOc1ccc(NC(=O)Cn2c3ncccc3c(=O)n2-c2ccc(CC)cc2)cc1
  -2%	-9%
72) CCOc1ccccc1CNC(=O)c1nn(C)c2c1CS(=O)(=O)c1ccccc1-2
  ?	-23%
73) O=c1[nH]nc(OCCCc2ccc(Cl)cc2)c(NCc2cccnc2)c1Br
  nt	?
74) CC(C)c1ccc2occ(CC(=O)N(Cc3ccc(F)cc3)C3CCS(=O)(=O)C3)c2c1 (configuration not stated)
  ?	?
75) CC(C)(C)c1nc2c3cc[nH]c(=O)c3c3cc(F)ccc3c2[nH]1
  nt	-3%
76) O=C(CC1N=C2c3ccccc3N=C(SCc3cccc(F)c3)N2C1=O)NC1CCCCC1 (configuration not stated)
  -17%	?
77) CCOc1ccc(NC(=O)c2ccc(F)c(S(=O)(=O)N(CC)Cc3ccccc3)c2)cc1
  ?	2µM*
78) Cc1ccc(-c2nc(S(=O)(=O)c3ccc(C)cc3)c(SCC(=O)Nc3ccc(F)cc3)o2)cc1
  -21%	-18%

The listing continues.
79	COc1ccc(-c2nnc(SCC(=O)N(C)C3CCCCC3)o2)cc1OC
80	Cc1ccc2c(c1)N(C(=O)CCC(=O)NCc1cccs1)CC(C)O2 (configuration not stated)
81	CCN1C(=O)c2ccccc2S(=O)(=O)c2ccc(C(=O)NCc3ccc(F)cc3)cc21
82	Cc1c(C)n(Cc2ccccc2)c2ccc(C(=O)NC(C)c3ccccc3)cc12 (configuration not stated)
83	CCN(CC)c1ccc(NS(=O)(=O)c2cc3[nH]c(=O)c(=O)[nH]c3cc2C)c(C)c1
compound no.,79,80,81,82,83
PMP22 txn,?,-6%,-19%,?,-39%
HTT prom inh,0%,-10%,-18%,6%,7%

Screens: PubChem, National Center for Advancing Translational Sciences (NCATS)
